Source: PubChem (several laboratories)
PrP 5UTR inh: inhibition of PrP 5' UTR reporter expression; cell-based PrP 5' UTR mRNA reporter, plate reader; inhibition, % (test concentration not listed); hit rate 0.35% among 340,000; AID 488862, 2010;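 active means every replicate at 50% or more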;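 further: 0 = median of the neutral control wells; tested in H4 reporter cells; numbers are from one replicate; inactives centre near -14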
BJeLR viability: MLPCN primary cell-based screen for lethality selective to Ras in HRASV12 cells. BJeLR (HRASV12) viability, CellTiter-Glo ATP luminescence, 48 h; reference of the scale not given here. inhibition, % (test concentration not listed). hit rate 0.17% among 300,000;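 active means replicate mean above 50%; inconclusive means above 50% but judged a plate artefact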;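 further: 50 nL library stock added to about 25 µL; numbers are from one replicate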
Mtb hypoxia inh: PubChem AID 1159583 | fluorescence inhibition, % (test concentration not listed) | M. tuberculosis hypoxia-regulated fluorescent reporter, fluorescence | hit rate 0.1% among 300,000;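 active means 35 to 45% if threefold the growth effect, above 45% if 1.5-fold the growth effect; inactive means the rest, general growth blockers included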;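 further: wells of about 50 µL received 100 nL stock; 0% = vehicle wells and 100% = reference inhibitor wells; whole bacteria with a GFP reporter of the hypoxia response; strong numbers were not always called active; many hits fall short of the cut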
Sa RN4220 lethal: growth inhibition of S. aureus RN4220, primary screen, OD600; 16 h; inhibition, % (no concentration beside the values); hit rate 0.33% among 330,000;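 active means z-score of -3 or lower and OD600 up to 0.18 on both plates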;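 further: plate controls were untreated cells for no effect and reference antibiotic for full effect; stock transfer was 100 nL into about 80 µL; one replicate is shown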
ugtP null kill: growth inhibition of ugtP-null S. aureus, primary screen, RN4220 ugtP deletion, OD600; 16 h; some inactives read as strong as hits; growth inhibition, % (concentration not given with the values); hit rate 0.54% among 330,000;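 active means z-score under -3 and OD600 up to 0.15 on both plates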;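 further: plate controls were untreated wells for no effect and antibiotic for full effect; wells of about 80 µL received 100 nL stock; the first replicate is given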
Bead autofluor: counter-screen for toxin protease inhibitors: compound fluorescence | compound autofluorescence counterscreen, microsphere flow cytometry; hits give high values | fluorescence intensity (concentration not given with the values) | hit rate 3.1% among 360,000 | AID 624483;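 active means at least 3 SD above the mean of all compounds, about 16000 in these data; inconclusive means too few beads counted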;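 further: 100 nL of 1 mM stock went into each well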
Mtb hypoxia inh growth: also measured in Mtb hypoxia inh; calls as there; growth inhibition, %; measured here: M. tuberculosis growth (absorbance);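 0% = vehicle and 100% = reference antibiotic; read after six days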
An asterisk follows results filed as active; u = inconclusive; x = not tested or not shown.

SMILES | PrP 5UTR inh | BJeLR viability | Mtb hypoxia inh | Mtb hypoxia inh growth | Sa RN4220 lethal | ugtP null kill | Bead autofluor
CCCNC(=O)COC(=O)c1ccc(N2CCCC2)c([N+](=O)[O-])c1 | -18 | -5 | 5 | 2 | 1.8 | -1 | 3250
COc1ccc(C(C(=O)NC2CCCCC2)N(C(=O)c2sc(C)nc2C)c2ccccc2C)cc1 (configuration not stated) | -14 | 3 | 5 | 5 | 9.3 | 6 | 9314
Cc1ccc(NC(=O)NCCN2CCN(c3ccccc3)CC2)cc1Cl | -16 | -4 | 16 | 10 | 2.4 | 3 | 4015
CCN1C(=O)/C(=C\c2cccs2)C(C(=O)OC)=C1C | -9 | -3 | x | x | 3.1 | 3 | 2740
Cc1ccc(C(=O)OCC(=O)NC(=O)NCc2ccccc2)cc1C | -2 | x | 9 | 5 | 5.0 | 0 | 3827
O=C(CCNS(=O)(=O)c1cccc(C(F)(F)F)c1)NC1CC1 | x | x | 16 | 3 | 7.0 | 4 | x
Cc1ccc(CS(=O)(=O)c2ncn[nH]2)cc1 | -26 | 0 | -1 | 7 | -0.8 | 3 | 4051
CCOC(=O)c1ccc(NC(=O)c2ccc3c(c2)OCO3)cc1 | -35 | 5 | x | x | 11 | 10 | 3862
CCc1ccc(-n2c(=O)c3c(C)c(C(=O)N(C)C)sc3n(CC(=O)NCC3CCCO3)c2=O)cc1 (configuration not stated) | -5 | 5 | 9 | 3 | 3.1 | 3 | 4323
CN(C)c1ccc(C(=O)OCc2cc(=O)n3ccsc3n2)cc1 | -23 | x | -2 | 7 | 2.8 | 0 | 4203
Cc1ccccc1OCCn1c(C)nc2ccccc21 | 17 | 8 | 13 | 2 | 2.5 | 6 | x
COc1ccccc1NC(=O)NCC(=O)Nc1c(C)cccc1C | -19 | -9 | 1 | 4 | 7.0 | 3 | 4417
CCCC(=O)n1nc(-c2ccco2)nc1SCc1ccccc1 | -24 | 9 | x | x | x | x | 5978
COC(=O)C(=Nc1ccccc1)/C(C(=O)C(=O)N(C)c1ccccc1)=C(\O)c1ccccc1 | -18 | -8 | x | x | x | x | 3723
Cc1noc(C)c1S(=O)(=O)N1CCN(c2ccc([N+](=O)[O-])cc2)CC1 | -27 | 8 | -6 | -10 | 7.2 | 15 | 5844
CC(C)CC12CN3CCN(CC(C3)C1O)C2 (configuration not stated) | -17 | 0 | 2 | 8 | 4.0 | -7 | u
COC(=O)c1ccc(N=Cc2c(C(F)(F)F)[nH][nH]c2=O)cc1 | -8 | -4 | 11 | 8 | 4.5 | 5 | 1926
CCOC(=O)C1CCN(C(=O)C2CCCN2S(=O)(=O)c2ccc(Cl)cc2)CC1 (configuration not stated) | -19 | 4 | 4 | 6 | 1.0 | 5 | 5423
CCOC(=O)C1CCCN(C(=O)CCc2ccccc2)C1 (configuration not stated) | -5 | 3 | 5 | 9 | 2.2 | -5 | 5961
O=C(CSc1nnc(-c2ccco2)n1-c1ccccc1)NCc1ccc2c(c1)OCO2 | -25 | 0 | 3 | 3 | 4.3 | 4 | 11255
O=C(Cc1ccccc1)N1O[C@H]2C=C[C@@H]1CC2 | -20 | x | 5 | 3 | 6.5 | 5 | 3963
Cc1ccccc1OCCSc1nc(N(C)C)nc(N(C)C)n1 | -16 | 3 | 19 | 0 | 9.5 | 32 | 2461
O=P(Oc1ccccc1)(Oc1ccccc1)C(Nc1ccccc1)c1ccccc1 (configuration not stated) | -16 | 18 | 1 | -4 | 6.3 | -16 | 2548
O=C1CNCc2[nH]c3ccccc3c2N1c1ccccc1 | 1 | -1 | 3 | 1 | 0.6 | -2 | 9946
Cn1cc(Cl)c(-c2n[nH]c(=S)n2C2CCCCC2)n1 | -5 | 0 | 4 | -3 | 9.2 | 5 | 5021
CCOC(=O)c1sc(NC(=O)CN2C(=O)c3cccc4cccc(c34)C2=O)nc1C | -19 | 5 | 16 | 3 | 4.0 | 13 | 9468
Cc1cc(C)cc(NC(=O)c2cccc(NC3=NC4CS(=O)(=O)CC4S3)c2)c1 (configuration not stated) | -1 | -2 | 6 | 6 | -10 | 7 | 4179
CC[C@]12c3[nH]c4ccccc4c3CCN1C(=O)C(CC(=O)NC/C=C(\C)CCC=C(C)C)C[C@@H]2C(=O)N1CCN(C(=O)C2CC2)CC1 (some centres not stated) | -23 | x | 7 | 5 | -3.3 | 4 | 3558
Cc1cccnc1NC(=O)CSc1nnc(COc2ccc(C(C)C)cc2)n1C | -7 | 10 | 6 | 11 | 5.0 | 0 | 2380
CS(=O)(=O)N(CC(=O)N1CCCC1)c1cccc(F)c1 | -12 | -8 | 2 | -5 | 1.4 | 11 | 3835
Cc1ccc(NC(=O)C2CCCN(c3ncccn3)C2)c(C)c1 (configuration not stated) | -32 | -10 | -4 | 7 | 0.0 | 2 | 5103
COc1ccccc1/C=C/C=N/n1c(COc2ccccc2)n[nH]c1=S | -23 | 1 | x | x | x | x | 5464
CC(C)C(=O)Nc1ccc(C(=O)NNC(=O)C(c2ccccc2)c2ccccc2)cc1 | -5 | -6 | -3 | 2 | -5.4 | 3 | 15858
O=C(O)CSCc1c(F)cccc1Cl | -3 | 1 | -13 | 2 | 1.4 | -10 | 2966
COC(=O)[C@H](Cc1ccc(O)cc1)NC(=O)Cn1cnc(C(=O)Nc2ccc(C)c(C)c2)n1 | -24 | x | -10 | 10 | 3.8 | 5 | 3693
COc1ccc(CCN2CCCn3c2nc2c3c(=O)n(Cc3ccccc3F)c(=O)n2C)cc1OC | -25 | -2 | 8 | 11 | 0.4 | 9 | 3165
CCc1cc2c(-n3nc(C)cc3C)ncnc2s1 | -9 | -4 | 8 | 5 | 1.9 | 1 | 8619
CCc1ccc(C(=O)NNC(=O)c2cccc(N3C(=O)CCC3=O)c2)cc1 | -18 | -19 | 9 | 11 | 3.8 | 4 | x
COc1ccc(CCNC(=O)C2CCN(S(=O)(=O)c3ccc4nc5c(c(C(=O)O)c4c3)CCCC5)CC2)cc1OC | -18 | 2 | 4 | 0 | 0.4 | 5 | 5609
O=C(NC(=S)Nc1cccc(NC(=O)c2ccccc2Cl)c1)c1cccs1 | -14 | 9 | x | x | x | x | 8242

Some of the entries so far, with two lines to a compound:
Every second line gives: PrP 5UTR inh | BJeLR viability | Mtb hypoxia inh | Mtb hypoxia inh growth | Sa RN4220 lethal | ugtP null kill | Bead autofluor
> CCCNC(=O)COC(=O)c1ccc(N2CCCC2)c([N+](=O)[O-])c1
→ -18 | -5 | 5 | 2 | 1.8 | -1 | 3250
> COc1ccc(C(C(=O)NC2CCCCC2)N(C(=O)c2sc(C)nc2C)c2ccccc2C)cc1 (configuration not stated)
→ -14 | 3 | 5 | 5 | 9.3 | 6 | 9314
> Cc1ccc(NC(=O)NCCN2CCN(c3ccccc3)CC2)cc1Cl
→ -16 | -4 | 16 | 10 | 2.4 | 3 | 4015
> CCN1C(=O)/C(=C\c2cccs2)C(C(=O)OC)=C1C
→ -9 | -3 | x | x | 3.1 | 3 | 2740
> Cc1ccc(C(=O)OCC(=O)NC(=O)NCc2ccccc2)cc1C
→ -2 | x | 9 | 5 | 5.0 | 0 | 3827
> O=C(CCNS(=O)(=O)c1cccc(C(F)(F)F)c1)NC1CC1
→ x | x | 16 | 3 | 7.0 | 4 | x
> Cc1ccc(CS(=O)(=O)c2ncn[nH]2)cc1
→ -26 | 0 | -1 | 7 | -0.8 | 3 | 4051
> CCOC(=O)c1ccc(NC(=O)c2ccc3c(c2)OCO3)cc1
→ -35 | 5 | x | x | 11 | 10 | 3862
> CCc1ccc(-n2c(=O)c3c(C)c(C(=O)N(C)C)sc3n(CC(=O)NCC3CCCO3)c2=O)cc1 (configuration not stated)
→ -5 | 5 | 9 | 3 | 3.1 | 3 | 4323
> CN(C)c1ccc(C(=O)OCc2cc(=O)n3ccsc3n2)cc1
→ -23 | x | -2 | 7 | 2.8 | 0 | 4203
> Cc1ccccc1OCCn1c(C)nc2ccccc21
→ 17 | 8 | 13 | 2 | 2.5 | 6 | x

(more compounds)
SMILES | PrP 5UTR inh | BJeLR viability | Mtb hypoxia inh | Mtb hypoxia inh growth | Sa RN4220 lethal | ugtP null kill | Bead autofluor
O=C(Cc1ccc(-c2ccccc2)cc1)NCc1cccnc1 | -18 | 14 | 5 | 17 | -1.5 | 0 | 2484
COc1ccc(NC(=O)COc2ccc(N(C)S(=O)(=O)c3ccc(Cl)cc3)cc2)cc1 | -28 | x | -2 | 1 | -6.8 | 2 | 8097
O=C(COc1ccc(Cl)cc1Cl)NNC(=S)NC(=O)c1ccco1 | -17 | -2 | 6 | -8 | 93* | 90* | 3874
CC(C)Sc1nc(NCc2ccco2)c2c3c(sc2n1)COC(C)(C)C3 | -41 | 3 | -8 | 8 | 0.3 | -4 | 3347
Cc1ccc2oc(=O)c(/C=C(\O)C(C)(C)C)nc2c1 | -27 | 9 | 4 | -6 | -2.9 | -4 | 4281
CN(C)Cc1ccccc1OC(=O)N(C)C | -21 | -6 | x | x | 1.9 | 10 | 4639
Cc1onc(-c2c(F)cccc2Cl)c1C(=O)OCC(=O)c1c(N)n(C)c(=O)n(C)c1=O | -3 | 6 | 3 | 2 | 6.2 | 6 | 4468
CC(=O)N1CCN(S(=O)(=O)c2c(C)n(C)c(=O)n(C)c2=O)CC1 | -21 | -7 | 11 | 6 | 3.0 | 2 | 5865
Cc1cc2nc(/N=C(\N)NC(=O)C(C)C)nc(C)c2cc1C | -14 | 17 | 18 | -1 | 1.1 | -2 | 4798
O=C(NN=Cc1ccc[nH]1)c1cc(-c2cccs2)nc2ccccc12 | x | x | 5 | 5 | -1.1 | 9 | x
Cc1ccc2nc(-c3ccccc3)oc(=O)c2c1 | -7 | 2 | 5 | -2 | 10 | 9 | 3202
O=C(Nc1ccncc1)c1cc2ccccc2cc1O | -111 | 2 | 11 | 8 | 3.4 | -9 | 5873
COc1cccc(CNc2ccc(Br)cn2)c1O | -60 | 2 | -3 | -4 | -1.3 | 1 | 24305*
CN(CC(=O)Nc1ccc(N2CCOCC2)cc1)C(=O)CSc1ccc(Br)cc1 | -25 | 5 | 12 | -5 | 6.7 | 22 | 4544
Cc1ccc(NC(=O)CCCC(=O)O)c(-c2nc3ccccc3[nH]c2=O)c1 | -12 | 9 | 12 | 7 | -1.3 | -5 | 4020
CCO[C@@H]1OC(C(=O)NCc2ccccc2)=C[C@H](c2ccc(Br)cc2)[C@H]1CCCO | -11 | -8 | x | x | x | x | 4458
Cn1c(=NC(=O)CS(=O)(=O)c2ccc(F)cc2)sc2ccccc21 | -20 | 4 | -3 | 1 | 1.2 | 1 | 6168
O=C(NCc1ccc2c(c1)OCO2)c1n[nH]c(=O)c2ccccc12 | -10 | 16 | 3 | -4 | 3.7 | -3 | 4578
O=C(CSc1nc2ccccc2s1)N1CCOCC1 | -29 | 3 | 1 | -4 | 5.3 | 1 | 11276
CCOc1ccc(-n2c(C)nc3c(cnn3-c3ccc(Cl)cc3)c2=O)cc1 | -6 | 3 | x | x | 1.4 | 4 | u
Cc1cc(C)c2c(NC(=O)C3CC3)nn(C)c2n1 | -24 | -5 | x | x | x | x | 4354
COCCNC(=O)c1c[nH]c2ccc(S(=O)(=O)N3CCC4(CC3)OCCO4)cc2c1=O | -12 | -1 | 2 | 3 | -15 | -2 | 3209
N#CCC(=O)NN=Cc1ccc(OS(=O)(=O)c2ccccc2)cc1 | x | x | 4 | 6 | 0.6 | -14 | x
Cc1ccc(S(=O)(=O)N(C)CCCC(=O)N2CCN(c3ccccn3)CC2)cc1 | -14 | 4 | 4 | 12 | 2.6 | 5 | 3239
CCOC(=O)c1nc(N)c(=O)n(-c2ccccc2)n1 | -10 | -1 | x | x | 0.8 | -1 | 3010
Cc1cccc(N2CCN(C(=O)c3ccc(CNc4c(N5CCC(C)CC5)c(=O)c4=O)cc3)CC2C)c1 (configuration not stated) | -17 | 1 | -1 | 9 | 3.6 | -6 | 2093
Cc1ccccc1C(=O)OC1CCCN(C)C1 (configuration not stated) | -4 | -11 | -3 | -2 | 1.8 | 6 | 3918
CC1=NN(c2ccccc2)C(=O)/C1=C\N1CC(C)OC(C)C1 (configuration not stated) | -25 | -4 | -1 | -19 | 1.0 | 4 | 16159*
O=C(CNC(=O)c1ccc(Br)cc1)Nc1ccc(Br)cc1C(=O)c1ccccc1 | -14 | 1 | 11 | -4 | 7.8 | -9 | 2577
O=C(N/N=C/c1ccc(OCCCF)cc1)c1ccc(C(F)(F)F)cc1 | -12 | 4 | x | x | x | x | 3181
